Screens as filed in PubChem BioAssay.
H5N1 CPE: MDCK cell protection from H5N1 avian flu | cytopathic effect, luminescence, 72 h; hits give high values; no value below 0 was filed and about half of the inactive calls have no number; reference of the scale not given here | inhibition, % at 50 µM | actives 0.07% (n = 96,000) | AID 740; in the data active means inhibition above about 25%
Active calls of the source: *; i = inactive. The list is partial; rates above refer to the full screens.

The opening six compounds (preview)
smiles	H5N1 CPE
CN(C)CCNc1ncnc2c1cnn2-c1ccc(Cl)cc1	i
CCn1c(SCC(=O)Nc2ccc(NC(C)=O)cc2)nnc1C1CC1	0.3
COc1ccccc1NC(=O)C(=O)Nc1ccccn1	1.9
COc1cc(C(=O)Nc2cccc3ncccc23)cc(OC)c1OC	0.0
O=C(Nc1ccccc1O)c1ccccc1O	4.3
Cc1ccc(NCc2nnc(SCC(=O)Nc3ccccc3)n2CC2CCCO2)c(C)c1 (stereo not drawn)	i

The listing, previewed entries included:
smiles	H5N1 CPE
CN(C)CCNc1ncnc2c1cnn2-c1ccc(Cl)cc1	i
CCn1c(SCC(=O)Nc2ccc(NC(C)=O)cc2)nnc1C1CC1	0.3
COc1ccccc1NC(=O)C(=O)Nc1ccccn1	1.9
COc1cc(C(=O)Nc2cccc3ncccc23)cc(OC)c1OC	0.0
O=C(Nc1ccccc1O)c1ccccc1O	4.3
Cc1ccc(NCc2nnc(SCC(=O)Nc3ccccc3)n2CC2CCCO2)c(C)c1 (stereo not drawn)	i
CN(C)CCn1c(NC(=O)c2ccc(Cl)cc2)nc2ccccc21	i
c1ccc(OCCCc2nc(-c3cccnc3)no2)cc1	i
CCC(C)c1ccc(NC(=O)C2CCCN(c3ncccn3)C2)cc1 (stereo not drawn)	0.2
Cc1ccccc1Nc1nc(-c2sc(NC(=O)c3cccc(Cl)c3)nc2C)cs1	i
CCn1c2ccccc2c2cc(NC(=O)CSc3nnc(-c4cccc(Cl)c4)o3)ccc21	i
Cc1ccc(S(=O)(=O)NCCSc2nnnn2C)cc1	2.2
O=C(COC(=O)c1ccccc1Nc1ccc(SC(F)F)cc1)NCc1ccco1	i
CSCCOC(=O)C1=C(C)Nc2ccc(C)cc2S1	i
COC(=O)CSC1=C(C#N)C(c2ccc3c(c2)OCO3)C2=C(CCCC2=O)N1 (stereo not drawn)	i
CCOc1ccc(C2C(C(=O)c3ccco3)=C(O)C(=O)N2CCCn2ccnc2)cc1 (stereo not drawn)	0.1
COc1ccc(OC)c(S(=O)(=O)Nc2ccc(C(N)=O)cc2)c1	0.3
O=C(CSc1ncnc2c(-c3ccc(Cl)cc3)nsc12)c1ccccc1	i
Cc1ccc(C2(c3ccc(C)cc3)CC2C(=O)Nc2ccc([N+](=O)[O-])cc2O)cc1 (stereo not drawn)	i
Cc1oc(-c2cccc(Cl)c2)nc1CN1CCC(C(=O)NCc2cccnc2)CC1	i
CCC(=O)N1c2ccc(C)cc2C2=NNC(=S)NC21O (stereo not drawn)	i
CCCCn1nc2cc(C(=O)NCCCCc3ccccc3)ccc2c1OCC	5.2
CC(=O)c1cccc(NC(=O)CCC2CCCC2)c1	1.1
FC(F)(F)c1cc(-c2ccc3c(c2)OCO3)nc(NCc2ccco2)n1	0.3
C=CCn1c(-c2ccc(OC)cc2)nc2ccccc21	1.4
CN(C(=O)CSc1nnc2ccccn12)C1CCS(=O)(=O)C1 (stereo not drawn)	i
CC(=O)Oc1oc(-c2ccccc2)nc1C=Nc1ccccc1	i
CCOc1ccc(S(=O)(=O)Nc2cccc(C(=O)N3CCN(c4ccc(OC)cc4)CC3)c2)cc1	1.2
CCc1c(C)[nH]c2c(C)cccc2c1=O	1.3
CCCc1cc(N2CCN(C(=O)c3ccco3)CC2)n2c(nc3ccccc32)c1C#N	4.3
COc1ccc(S(=O)(=O)NCC(=O)N(CC(=O)NCC2CCCO2)c2ccccc2C)cc1 (stereo not drawn)	0.7
O=C1C(C2=NC(C(=O)O)C3C(=O)N(c4ccccc4)C(=O)C23)=C(O)c2ccccc21 (stereo not drawn)	i
CN1c2ccccc2-c2nc3ccccc3n2C1c1ccco1 (stereo not drawn)	i
Cc1ccc(Nc2cc(-n3nc(C)cc3C)ncn2)cc1	0.5
O=C(/C=C/c1cccc(Cl)c1)NCc1cccs1	3.1
Cc1cc(NC(=O)CN2C(=O)CC(c3ccco3)Sc3ccccc32)no1 (stereo not drawn)	0.3
O=c1[nH]c2cc3c(cc2cc1CN(CCO)S(=O)(=O)c1ccccc1Cl)OCCO3	2.9
CC1CCN(S(=O)(=O)c2ccc(S(=O)(=O)NCC(=O)C(C)(C)C)cc2)CC1	0.7
C(=N\C(/N=C/c1ccco1)c1ccco1)/c1ccco1	0.1
CCc1nnc(NC(=O)C2CC(=O)N(CCc3ccccc3)C2)s1 (stereo not drawn)	1.2
CCCCC1CCC(C(=O)Nc2ccccc2)CC1 (stereo not drawn)	0.9
CCc1ccc(N2C(=O)c3sc4nnc(-c5ccccc5)c(=O)n4c3C2=O)cc1	5.2
O=[N+]([O-])c1ccc2c(c1)oc1ccccc12	1.5
CCn1c(=N)n(CC(=O)OC)c2ccccc21	i
O=S(=O)(c1ccc2c(c1)nc1n2CCC1)N1CCOCC1	i
COc1ccc(N(CC(=O)NC2CCCCC2)C(=O)CCCC(=O)Nc2ccccn2)c(OC)c1	0.9
Cc1ccccc1NC(=S)N1CCC(C(=O)c2ccc(F)cc2)CC1	i
Cc1cccc(CN2CCN(CC(=O)N3CCC4(CC3)OCCO4)C2=O)c1	i
CCCCC(=O)NC(=S)NNC(=O)CC#N	i
Cc1cc(=O)oc2cc(OCC(=O)N3CC(C)OC(C)C3)ccc12 (stereo not drawn)	0.0

Random excerpt: 6 compounds from above.
smiles	H5N1 CPE
O=S(=O)(c1ccc2c(c1)nc1n2CCC1)N1CCOCC1	i
CN(C(=O)CSc1nnc2ccccn12)C1CCS(=O)(=O)C1 (stereo not drawn)	i
Cc1ccccc1NC(=S)N1CCC(C(=O)c2ccc(F)cc2)CC1	i
CCc1ccc(N2C(=O)c3sc4nnc(-c5ccccc5)c(=O)n4c3C2=O)cc1	5.2
O=[N+]([O-])c1ccc2c(c1)oc1ccccc12	1.5
O=c1[nH]c2cc3c(cc2cc1CN(CCO)S(=O)(=O)c1ccccc1Cl)OCCO3	2.9

(next part)
smiles	H5N1 CPE
c1ccc(COc2cccc(CNn3cnnc3)c2)cc1	i
O=C1c2oc3ccc(Cl)cc3c(=O)c2C(c2ccco2)N1CCN1CCOCC1 (stereo not drawn)	i
O=C1CCc2cc(S(=O)(=O)N3CCN(c4ccccc4F)CC3)ccc2N1	1.3
COc1ccc(C2CC(=O)C(C=NCCN3CCOCC3)=C(O)C2)cc1 (stereo not drawn)	0.0
CCOC(=O)c1cnc2ccc(OCC)cc2c1N1CCN(c2ccccc2)CC1	3.4
O=C(c1ccc(NC(=O)C2(c3ccccc3)CCOCC2)cc1)N1CCOCC1	0.6
CCN(CC(=O)Nc1ccc(N2CCOCC2)cc1)Cc1nc2ccccc2c(=O)[nH]1	0.1
CSCCC(NC(N)=O)C(=O)N(C)CC(=O)Nc1ccc(C)cc1 (stereo not drawn)	i
CCOC(=O)CCc1c(C)nc(SCCN2CCCC2)c(C#N)c1C	i
O=C(Nc1ccc2c(c1)OCCO2)c1ccccc1F	1.5
O=C1CSC(=O)N1CCOCCN1C(=O)CSC1=O	0.8
CCc1cccc(NC(=O)Cn2cc3c(n2)CCCC3)c1	i
CC1(C)C2CCC1(C)C(NC(=O)CCN1CCCCC1)C2 (stereo not drawn)	0.7
CCOc1ccc(OCCOCCn2ccnc2)cc1	0.1
COc1ccc(Cl)cc1NC(=O)N1CCN(S(C)(=O)=O)CC1	i
O=S(=O)(c1ccc(Oc2ccc(Cl)cc2)c(S(=O)(=O)N2CCCCC2)c1)N1CCCCC1	i
COc1ccc(NC(=O)c2oc3ccccc3c2NC(=O)C2CC2)cc1	0.9
CCSc1ccccc1C(=O)N1CCN(c2ccccc2F)CC1	1.0
O=C(CSC(=S)N1CCOCC1)N1N=CCC1c1ccccc1 (stereo not drawn)	0.1
CCN(CC)S(=O)(=O)c1ccc(NC2c3ccccc3C(=O)N2c2ccc(C)cn2)cc1 (stereo not drawn)	0.9
CN(/N=C/c1c[nH]c2ccccc12)c1cnn(-c2ccc(F)c(Cl)c2)c(=O)c1Cl	0.7
C=CCNC(=O)CC(=O)N/N=C/c1cccc(Br)c1	1.1
Cc1cc(=O)n2[nH]c(-c3ccco3)nc2n1	0.3
COc1ccc(-c2nc(N)nc(C)c2Oc2ccccc2Br)c(O)c1	i
CC(C)(Oc1ccc(Cl)cc1)C(=O)N/N=C/c1cn[nH]c1-c1ccccc1	0.9
COc1ccc(-c2noc(CN3CCN(c4ccccc4F)CC3)n2)cc1OC	i
O=C1CC(C(=O)Nc2ccccc2C(=O)O)C(c2ccccc2)O1 (stereo not drawn)	1.4
Cn1c(=NC(=O)CCl)sc2ccccc21	2.7
Cc1sc(NC(=O)C2C3CCC(O3)C2C(=O)O)c(C(=O)OC(C)C)c1-c1ccc(Cl)cc1 (stereo not drawn)	i
COc1ccc(S(=O)(=O)Nc2c(C)n(C)n(-c3ccccc3)c2=O)cc1	i
Cc1ccc(NC(=S)NC(=O)c2ccc(-c3ccccc3)cc2)c(C)c1	i
CC(C)N1C[C@@]23C=C[C@@H](O2)C(C(=O)OCc2ccccc2)[C@H]3C1=O (stereo partly drawn)	i
Cc1ccc(OCC(=O)NCC(=O)n2nc(C)cc2C)cc1	0.6
Cc1occc1C(=O)N1CCN(c2ncccn2)CC1	0.3
Cc1cccc(N(CC(=O)NCC2CCCO2)C(=O)CCC(=O)Nc2cc(C)on2)c1 (stereo not drawn)	i
CCc1nnc(SCC(=O)Nc2ccc(N3CCOCC3)cc2)o1	i
C/C(=N/NC(=O)c1ccc(C)s1)c1cccc(NC(=O)COc2ccc(Cl)cc2Cl)c1	0.6
COC(=O)c1ccc(OC(=O)c2nn(C)cc2Cl)c(OC)c1	i
Cn1c(SCc2cnc(-c3ccccc3)s2)nnc1C1COc2ccccc2O1 (stereo not drawn)	i
CC(C)NC(=O)CSc1ccccc1C(=O)NCc1ccc2c(c1)OCO2	i
C/C(N)=C(/C#N)C(=O)CSc1nc2ccc(C)cc2[nH]1	i
CC(C)(C)NC(=O)C(c1ccccc1)N(C(=O)c1ccco1)C1CC1 (stereo not drawn)	0.4
CC(C)CC(C(=O)OCC(=O)Nc1ncc(Cl)cc1Cl)N1C(=O)c2ccccc2C1=O (stereo not drawn)	i
CC(C)C(C)NC(=O)CSc1nc2scc(-c3ccco3)c2c(=O)n1-c1ccccc1 (stereo not drawn)	0.4
CCOC(=O)c1nc(Nc2ccc(C(=O)OC)cc2)c2ccccc2n1	0.3
O=C(c1ccc2c(c1)C(=O)N(Cc1ccco1)C2=O)N1CCOCC1	i
Cc1onc(-c2ccccc2Cl)c1C(=O)Nc1nn[nH]n1	i
O=C(Nc1nc2c(s1)COc1ccccc1-2)c1cccs1	0.6
COCCCn1c(N)c(C(=O)OCCOC)c2nc3ccccc3nc21	i
COCc1nc(-c2ccc(-c3ccc(C)cc3)nc2OC)no1	i

Continued:
compound	H5N1 CPE
CCc1cc2c(C)cc(=O)oc2cc1OC(=O)C1CCCN1C(=O)OC(C)(C)C (stereo not drawn)	0.8
CCCc1cc2c(=O)c(-c3ccc4c(c3)OCCO4)coc2cc1OC(=O)c1ccco1	0.4
COc1cccc(NC(=O)c2ccccc2-c2nc(-c3ccc(Cl)cc3)no2)c1	i
CCc1ccccc1NC(=O)CSc1nnc([C@@H](NC(=O)OC(C)(C)C)C(C)C)o1	0.4
CC(C)OC(=S)N/C(=N\S(=O)(=O)c1ccccc1)c1ccccc1	4.0
COc1cccc(C2c3c(oc4cc(C)c(C)cc4c3=O)C(=O)N2CCCN(C)C)c1 (stereo not drawn)	i
O=C(OCn1nnc2ccccc2c1=O)c1cccnc1Cl	1.0
COc1cc(NC(=O)c2ccco2)c(OC)cc1NC(=O)CCC(=O)Nc1cc(C)cc(C)c1	i
Cc1nc(N2N=C3/C(=C/c4ccc(F)cc4)CCCC3C2c2ccc(F)cc2)sc1C(=O)N(C)C (stereo not drawn)	4.0
COc1ccc(S(=O)(=O)Nc2c(C(=O)O)[nH]c3ccccc23)c(OC)c1	i
COCCCNC(=O)c1c(-c2ccccc2)noc1C	1.2
COc1cccc(C(=O)CN(C(=O)c2ccc(Cl)c(Cl)c2)N2C(=O)C3CCCCC3C2=O)c1 (stereo not drawn)	i
COc1ccccc1NC(=O)Cn1c(=O)sc2ccccc21	0.4
CCSc1nc(O)c(Cc2ccccc2)c(=O)[nH]1	0.4
Cc1ccc(S(=O)(=O)N/N=C\c2cccnc2)cc1	0.1
CCCSc1nnc2nc(C)cc(C)n12	0.4
CN(C)C=C1C(=O)c2ccccc2C1=O	1.3
O=C(C1CCN(S(=O)(=O)c2ccc(F)cc2)CC1)N1CC=C(c2ccccc2)CC1	0.3
Cc1cccc(C)c1NC(=O)CC(NCc1ccco1)C(=O)O (stereo not drawn)	1.8
COc1ccc(CC(=O)Nc2sc(Cc3ccccc3)c(C)c2C(N)=O)cc1	i
O=C(CCN1CCCCCC1)Nc1cccc(F)c1	0.0
O=C(O)c1ccc2c(c1)N(Cc1ccccc1F)C(=O)c1ccccc1S2=O (stereo not drawn)	2.0
COc1ccccc1CNC(=O)C(C)NS(=O)(=O)c1ccccc1 (stereo not drawn)	0.5
O=C(CSc1nnc(-c2ccco2)n1CC1CCCO1)c1ccccc1 (stereo not drawn)	0.3
O=C1c2ccccc2C(=O)N1c1ccccc1S(=O)C(F)(F)F (stereo not drawn)	0.1
Cc1ccccc1CN1CCN(C(=O)c2cccc(F)c2)CC1	0.4
O=C(Nc1cccnc1)C1(F)C(F)(F)C(F)(F)C(F)(F)C(F)(F)C1(F)F	i
CN(C)C(=O)CSc1nc2ccccc2c(=O)[nH]1	0.4
N#Cc1ncc(C(F)(F)F)cc1Sc1ccc(N)cc1	i
C=CCNC(=O)C(C)Sc1ccc(Cl)cc1 (stereo not drawn)	i
CC(=O)Cc1nsc(NC(=O)c2ccc(COc3ccc(C)cc3)o2)n1	0.1
CCOc1ccc(OCC)c(NC(=O)CSc2nc3ccccc3c(=O)n2C)c1	1.3
O=c1c(-c2ccccc2)coc2c(CN3CCCC3)c(O)ccc12	0.9
